# BmaI1: BmaI1 acyl-homoserine lactone synthase inhibition – biochemical, fluorescence intensity, with counterscreen (AID 720554); BmaI1 enzyme assay, fluorescence intensity; hits give high values; test concentration not given here; a few actives read low; strong numbers were not always called active; inhibition, %; 12,000 tested, 0.4% active;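 active = both replicates within 2 robust z-scores of the inhibited control and a quiet counterscreen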;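 also: 0% = uninhibited enzyme and 100% = inhibited control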
# BmaI1 counterscreen: recorded beside BmaI1, whose call it bears; inhibition, %; measured here: counterscreen; design of the counterscreen not given here;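 first of two replicates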
# An asterisk follows results filed as active. Only part of the results is shown. The share of hits here may be higher or lower than overall.
SMILES,BmaI1,BmaI1 counterscreen
Cn1nc(C(=O)NCCNc2ncc(C(F)(F)F)cc2Cl)c2ccccc2c1=O,0,-3
O=c1sc2c(s1)SCSCS2,16,8
CC12CCC(=O)N1C(C(=O)OCC(=O)Nc1cccc(Br)c1)CS2 (stereo not drawn),0,-3
C=CCNc1nc(C(=O)OCC(=O)c2cc(C)n(Cc3ccc4c(c3)OCO4)c2C)cs1,24,13
O=C(COC(=O)c1ccncc1)Nc1ccccc1,14,5
Cc1ccc(S(=O)(=O)c2nc(NCCCN3CCCC3=O)sc2Cl)cc1,16,11
CN(C)c1cccc(C(=O)NCCc2c[nH]c3ccccc23)c1,22,8
CCNC(=O)CON=C1c2ccccc2-c2ccccc21,6,11
CCOC(=O)c1cc2c(C(F)(F)F)cc(C(F)(F)F)nc2s1,-3,0
CC(NC(=O)CN(C)Cc1cccs1)c1ccccc1 (stereo not drawn),10,8
O=C(OCC(=O)N(C1CCCCC1)C1CCS(=O)(=O)C1)C1CC1 (stereo not drawn),12,4
Cn1/c(=N/S(C)(=O)=O)sc2ccccc21,4,4
COC(=O)c1ccc(COC(=O)c2ccc(CN3CCCC3=O)cc2)cc1,14,0
Cc1c(C(=O)OCC(=O)c2cccs2)oc2ccccc12,16,0
CNC(=O)NC(=O)C(C)Sc1nc2sccc2c(=O)n1-c1ccccc1 (stereo not drawn),12,2
O=S(=O)(NCc1ccccc1)c1cccc(Cl)c1,2,0
Cn1c(O)c(N=Nc2ccc(S(=O)(=O)N3CCOCC3)cc2)c(=O)n(C)c1=O,14,8
Cc1cc(C)nc(SCC(=O)OCC(=O)Nc2ccc3c(c2)CCC3)n1,-4,-11
CCOc1ccccc1-n1nnnc1SCC(=O)c1ccc[nH]1,-14,-1
Cc1cc(SCC(=O)Nc2cccc(C#N)c2)nc2ccccc12,12,-4
O=C(COC(=O)c1n[nH]c(=O)c2ccccc12)NC1C2CC3CC(C2)CC1C3 (stereo not drawn),10,6
CCOC(CNCc1ccco1)OCC,8,1
CC(=O)NCCC(=O)Nc1ccc(-c2cn3ccsc3n2)cc1,4,3
O=C(Cc1nncn1-c1ccccc1)c1ccc(O)cc1O,0,-18
O=S(=O)(Nc1nccs1)c1ccccc1,36,22
Cc1cc(C(C)(C)C)ccc1OCC(O)CNC1CCC(O)CC1 (stereo not drawn),19,10
Cn1cccc1C1CCCN1CC(=O)NC(=O)NCc1ccccc1 (stereo not drawn),8,12
Cc1cc(C(=O)COC(=O)c2ccc(-n3cnnn3)cc2)c(C)n1-c1cccc(F)c1,-1,2
O=C(Oc1ccc(-c2nnco2)cc1)c1ccc2ccccc2c1,16,6
COc1ccccc1CC1(C)NC(=O)NC1=O (stereo not drawn),-4,0
CCC(=O)c1ccc(OCC(=O)NCCOc2ccccc2)cc1,10,11
O=C(c1ccno1)N1CCN(Cc2ccccc2)CC1,16,8
O=C(OCc1cc(=O)oc2cc(O)ccc12)c1cnccn1,8,8
CCCSc1ccc2nc(NC(=O)OC)[nH]c2c1,-10,2
N#Cc1ccc(COC(=O)c2ccc3noc(-c4ccccc4)c3c2)cc1,8,0
CCN(CC)S(=O)(=O)c1ccc(N/N=C/C=C2/N(C)c3ccccc3C2(C)C)nc1,92,28
O=C(Cc1ccc(-c2ccccc2)cc1)NCc1ccco1,10,0
CN(C)S(=O)(=O)c1cccc(COC(=O)c2ccc3c(c2)OCO3)c1,10,0
CN(Cc1nc2ccccc2c(=O)[nH]1)Cc1cc(=O)oc2cc3c(cc12)CCC3,13,4
COc1ccc(C(=O)OCC(=O)N2C(C)CCCC2C)cc1 (stereo not drawn),10,6
CC(=O)Nc1cccc(C(=O)NCC2(N3CCCCC3)CCCCC2)c1,4,-2
CSc1ncccc1C(=O)Nc1ccnn1Cc1ccccn1,13,-2
Nc1nc2ccccc2n2nnnc12,4,2
CC1(C)Cc2cccc(Oc3nnnn3-c3ccccc3)c2O1,12,3
O=C(OC1CCCC1=O)c1cc(-c2ccco2)nc2ccccc12 (stereo not drawn),20,4
Cc1cc(N2CCN(c3ccccn3)CC2)nc2c(C)cccc12,-8,-7
COC(=O)C1CN(C(=O)Cc2coc3cc4c(cc23)CCC4)c2ccccc2O1 (stereo not drawn),24,6
C=CCn1c(C)cc(C(=O)CN2NS(=O)(=O)c3ccccc3C2=O)c1C,-1,-2
CCCCCC(=O)Nc1ccc(C(=O)COC(=O)c2cnc(C)cn2)cc1,4,8
C[N+]1(C)CCCC(OC(=O)C(O)(c2ccccc2)c2ccccc2)C1 (stereo not drawn),12,17
CC1Cc2ccccc2N1C(=S)NC(=O)c1ccco1 (stereo not drawn),74,14
C=CCn1c(=O)n(CC=C)c(=O)n(Cc2ccc(Cl)cc2)c1=O,-22,-7
CCOC(=O)C1=C(CSc2nnc3ccccn23)NC(=O)NC1c1cccs1 (stereo not drawn),-4,0
CCn1c(=O)c(C(=O)CN2CCc3ccccc32)c(N)n(Cc2ccccc2)c1=O,-2,14
CCCCn1nc(C(=O)NC2CCCCCC2)c2ccccc2c1=O,2,3
CCCn1c(N)c(C(=O)CSc2nc3ccccc3s2)c(=O)[nH]c1=O,22,18
CCCn1c(N)c(C(=O)CSc2nc3ccccc3n2CCC#N)c(=O)n(C)c1=O,12,2
O=C(O)C1CCCCN1S(=O)(=O)c1ccccc1Cl (stereo not drawn),14,8
Cc1occc1-c1nnc(SC2CCCCN(C(=O)c3ccc(F)cc3)C2=O)n1C (stereo not drawn),16,1
Cc1ccc2nc(COC(=O)c3c(-c4ccccc4)noc3C)cc(=O)n2c1,-1,-4

# In another format: entries from further up
# Every second line gives: BmaI1, BmaI1 counterscreen
- O=C(OC1CCCC1=O)c1cc(-c2ccco2)nc2ccccc12 (stereo not drawn)
    20, 4
- CCCn1c(N)c(C(=O)CSc2nc3ccccc3n2CCC#N)c(=O)n(C)c1=O
    12, 2
- CCn1c(=O)c(C(=O)CN2CCc3ccccc32)c(N)n(Cc2ccccc2)c1=O
    -2, 14
- C[N+]1(C)CCCC(OC(=O)C(O)(c2ccccc2)c2ccccc2)C1 (stereo not drawn)
    12, 17
- C=CCn1c(C)cc(C(=O)CN2NS(=O)(=O)c3ccccc3C2=O)c1C
    -1, -2
- COC(=O)C1CN(C(=O)Cc2coc3cc4c(cc23)CCC4)c2ccccc2O1 (stereo not drawn)
    24, 6

# Rewritten with values under each structure: 2 of the compounds above
# Second line of a record – BmaI1, BmaI1 counterscreen
- CC1Cc2ccccc2N1C(=S)NC(=O)c1ccco1 (stereo not drawn)
  74, 14
- C=CCn1c(=O)n(CC=C)c(=O)n(Cc2ccc(Cl)cc2)c1=O
  -22, -7

# Going on with the list.
SMILES,BmaI1,BmaI1 counterscreen
NCC(O)C(O)C(O)c1cnn(-c2ccccc2)n1 (stereo not drawn),18,11
Cc1cc(C)n(CCCNC(=O)CSc2ccc(S(=O)(=O)N(C)C3CCCCC3)cn2)n1,24,4
Cc1ccc(OCCn2cnc3ccccc3c2=O)cc1,4,2
Cc1nnc(NC(=O)c2ccccc2SCC(=O)NC2CCCCCCC2)o1,27,6
CCCn1nnnc1NC(=O)c1cccnc1Cl,-6,2
Cc1cc(C(=O)COc2ccc3c(c2)CCC3)c(C)n1C,13,6
Cc1cc(Nc2ccc(NNC(=O)c3ccc(F)cc3)nn2)n(-c2ccccc2)n1,30,-8
O=C(OCc1cc(Cl)cc2c1OCOC2)c1ccc(CN2CCCC2=O)cc1,20,12
COc1ccc(-n2nnnc2SCC(=O)N2CC(=O)Nc3ccccc32)cc1,14,8
Cn1cnnc1SCNC(=O)c1cc2ccccc2o1,11,3
CN(CCOc1ccc(F)cc1)Cc1ccccc1,0,0
C[C@@H](C(=O)Nc1nc2ccccc2[nH]1)N1C(=O)C2CC=CCC2C1=O (stereo partly drawn),6,6
Cc1cc(C(=O)COC(=O)CCN2C(=O)C3CC=CCC3C2=O)c(C)n1C (stereo not drawn),14,6
CC(=O)OCC(=O)[C@@]1(O)CC[C@H]2[C@@H]3CCC4=CC(=O)C=C[C@]4(C)[C@H]3[C@@H](O)C[C@@]21C,10,21
c1ccc(-c2nc(-c3cccnc3)n[nH]2)cc1,7,27
O=S(=O)(Nc1ccccc1N1CCOCC1)c1ccc(Cl)s1,22,4
CC(C)NC(=O)c1cc(-c2ccco2)nn1-c1ccc(Cl)cc1,25,9
CCNC(=S)N/N=C/c1ccccc1OC(C)C,-9,4
SCc1nc2c3ccccc3ncn2n1,92,87
O=C(O)c1nn(Cc2ccccc2)c(=O)c2ccccc12,8,2
CCCn1c(N)c(C(=O)CN2CCCCC2)c(=O)[nH]c1=O,-14,4
O=C(CN1CCN(Cc2ccccc2)CC1)NC(=O)NCc1ccco1,-14,-8
CN(C)S(=O)(=O)c1ccc(C(=O)OCC(=O)N2CCCCC2)cc1,10,4
O=C(CSc1nnc(-c2ccccc2)o1)N(CC1CCCO1)c1nc2ccccc2s1 (stereo not drawn),16,8
NC(=O)C1CCN(Cc2cc(=O)oc3cc(O)ccc23)CC1,6,-4
CCC(C)C(NC(N)=O)C(=O)NC1CCC(C)CC1 (stereo not drawn),-2,-3
O=C(O)c1ccc(C2CCCCC2)cc1,6,-2
COCCCNc1nc2ccccc2n(CC(=O)N2CCCCCC2)c1=O,0,-3
CCCc1cc(=O)[nH]c(SCC(=O)N2c3ccccc3NC(=O)C2(C)C)n1,14,4
O=C1OCC(c2ccc(Cl)cc2)=C1c1cccs1,14,13
Cc1ccc2c(CC(=O)OC(C)C(=O)Nc3ccc(N4CCOCC4)cc3)coc2c1 (stereo not drawn),18,-5
Cc1cc(NC(=O)CN2CCCc3ccccc32)no1,32,9
CCC1=C(C)CN(C(=O)NCCc2ccc(S(=O)(=O)NC(=O)NC3CCC(C)CC3)cc2)C1=O (stereo not drawn),12,21
Cc1ccc(-n2c(SCC(=O)N3CCNC3=O)nnc2-c2ccccc2)cc1C,10,12
O=C(CSc1nnc(Nc2ccccc2)s1)NC1CCS(=O)(=O)C1 (stereo not drawn),6,3
COc1ccc(S(=O)(=O)N2CCCC2C(=O)Nc2c(C)n(C)n(-c3ccccc3)c2=O)cc1 (stereo not drawn),6,0
O=C(O)c1ccc(Cl)c(N2CCCC2=O)c1,2,-3
COc1ccc(-c2cc(-c3nnc(COC(=O)C4COc5ccccc5O4)o3)c3ccccc3n2)cc1OC (stereo not drawn),3,-6
Cn1c(N)c(C(=O)CN2c3cccc4cccc(c34)S2(=O)=O)c(=O)n(C)c1=O,17,7
O=C(CN(CCc1ccc(F)cc1)CC(=O)N1CCc2ccccc21)N1CCc2ccccc21,20,9
CC(C)CCn1cnc2c1c(=O)n(CC(=O)N1c3ccccc3NC(=O)C1(C)C)c(=O)n2Cc1ccccc1,8,2
N#Cc1ccc(-c2ccc(OCc3ncc(-c4ccccc4)o3)cc2)cc1,-7,-9
Cc1oc(-n2cccc2)c(C#N)c1C(=O)O,-1,4
COc1ccccc1N(CC(=O)Nc1ccc2c(c1)OCO2)S(=O)(=O)c1cccs1,12,10
COC(=O)c1ccc(COC(=O)C(C)N=C2NS(=O)(=O)c3ccccc32)o1 (stereo not drawn),4,1
O=C(CN1CCCC1c1cccs1)Nc1cc(C(F)(F)F)ccc1-n1cncn1 (stereo not drawn),10,8
COc1cc(C(=O)CN2CCOCC2)cc(OC)c1OC,26,-4
Cn1nc(N2CCCCCC2)c(=O)n(C)c1=O,9,17
N#CCCC(=O)c1ccco1,3,2
CCOCCCn1c(SCC(=O)NC2(C#N)CCCCC2)nc2ccccc2c1=O,-4,2
Cc1cc(C(=O)N/N=C2\CC(c3ccccc3)Oc3ccccc32)c(C)o1 (stereo not drawn),8,8
O=S(=O)(c1ccc(N=C2NN=C(c3cc(F)ccc3F)CS2)cc1)N1CCOCC1,46,4
Cc1occc1C(=O)N=Nc1c(O)n(Cc2ccccc2Cl)c2ccccc12,2,6
O=C(N[C@@H](Cc1ccccc1)C(=O)OCc1ccccc1)c1ccco1,22,16
COc1ccc(C(=O)OCc2ccccc2F)c(OC)c1OC,0,12
CN(C)S(=O)(=O)c1ccc(N2CCCC2)c(C(=O)OCC(=O)NCc2ccc3c(c2)OCO3)c1,13,2
NC(=O)CSc1ncccc1C(=O)O,-1,-8
CC1CCCCN1C(=O)COc1ncnc2sccc12 (stereo not drawn),10,-5
CCCCNc1nc2ccccc2n1CC(N)=O,1,1
N#Cc1ccccc1CSc1nc2ccccc2s1,21,10

# Continued:
SMILES,BmaI1,BmaI1 counterscreen
CCc1ccc(C(=O)CN2C(=O)CN(C)C2=O)cc1,11,1
Cc1nn(CN2CCCC2c2cccs2)c(C)c1S(=O)(=O)N1CCCCC1 (stereo not drawn),20,10
CC(Sc1nc2ccccc2s1)C(=O)N1CCOCC1 (stereo not drawn),8,-4
CC(C)N(CC(N)=O)C(=O)c1cc2ccccc2o1,-2,-7
CC(=O)Nc1ccc(/C=N/NC(=S)NC(C)C)cc1,-66,-10
CN(C)c1oc(-c2ccccc2)nc1S(=O)(=O)c1ccccc1,12,1
Cc1cc(C(=O)CSc2ccc(S(=O)(=O)N(C)C)cn2)c(C)n1-c1ncn[nH]1,20,8
CC(C)CCN1C(=O)c2ccc(C(=O)OCC#N)cc2C1=O,4,4
Cc1ccc(-c2n[nH]c(=S)n2CCC(=O)O)cc1,24,35
Cc1ccc(-n2c(CCC(=O)OCC(=O)Nc3cc(C)on3)nc3ccccc3c2=O)cc1,10,6
Cc1ccc(-c2nnc(NCc3ccco3)c3ccccc23)cc1C,19,2

# Compound activity from PubChem.
